Screens: PubChem BioAssay, National Center for Advancing Translational Sciences (NCATS)
PK Bst = alters activity of Bacillus stearothermophilus pyruvate kinase; AID 361; 51,000 compounds, 1.2% hits; partly purified Bacillus stearothermophilus pyruvate kinase, luminescence ATP production; ribose 5-phosphate activator present at AC10; Potency, µM; in the data active means potency below about 11 µM; inconclusive means mostly about 12 µM to 25 µM; inactive means weaker than that;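 the screen sought inhibitors and activators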;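 note: potency is the fitted concentration of half-maximal effect; scaled between full activation by ribose 5 phosphate and full inhibition by luteolin; about four in five hits inhibit and the cells do not say which; series up to 57 µM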
TsaE inh = YjeE (TsaE) inhibition, E. coli | purified YjeE, fluorescence polarisation of a bound ADP probe | Potency, µM | 71,000 compounds, 0.05% hits; active = well fitted falling curve; inconclusive = weaker or top-dose-only fall, or a rising curve; inactive = flat or poorly fitted curve;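 note: top concentration of the series not given in the record; excess ADP was the control for the full effect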
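Purified YjeE (10 uM) with BODIPY Texas Red-labeled ADP probe (2 uM); compounds pin-transferred, 15 min at room temperature. Binding inhibition read as decreased fluorescence polarization; ADP titration as control.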
Active calls of the source: *.

For CCCCNC(=O)CC1C(=O)N(Cc2ccccc2)C(C)c2nc3ccccc3n21 (centres undefined) the results were PK Bst >57 and TsaE inh inactive.
O=C(OCC(=O)N1CCOCC1)C(c1ccccc1)c1ccccc1 was read as PK Bst >57 and TsaE inh inactive.
O=C(c1c(Cl)nc2sccn12)N(C(=O)c1c(Cl)nc2sccn12)c1ccc(Cl)cn1 was read as PK Bst >57 and TsaE inh inactive.
CCC(c1nnnn1C1CCCC1)N1CCN(C(=O)c2ccco2)CC1 (centres undefined) was read as PK Bst >57 and TsaE inh inactive.
For Cc1sc2ncnc(Sc3nnnn3-c3ccc(Cl)cc3)c2c1C the results were PK Bst >57 and TsaE inh inactive.
`NC(=O)C1CCC(NC(=O)OCc2ccccc2)CC1` (centres undefined) gave PK Bst >57 and TsaE inh inactive.
For Cc1ccc(OCC(O)Cn2c(N3CCOCC3)nc3c2c(=O)[nH]c(=O)n3C)cc1 (centres undefined) the results were PK Bst >57 and TsaE inh inactive.
CC(C)[C@@H](CC(=O)N[C@@H]1CCNC[C@H]1C(=O)N[C@H](CC(=O)N[C@@H](CCC(=O)O)CC(=O)O)Cc1ccccc1)NC(=O)C[C@H](CO)NC(=O)[C@@H]1CCCC[C@H]1N was read as TsaE inh inactive.
Screening Clc1ccc(-c2nnc3ccccn23)cc1 returned PK Bst >57 and TsaE inh inactive.
Cc1nnc(N(Cc2ccco2)C(=O)c2ccno2)s1 was read as PK Bst >57 and TsaE inh inactive.
Screening Cc1ccccc1OCC1Cn2c(nc3c2c(=O)[nH]c(=O)n3C)O1 (centres undefined) returned PK Bst >57 and TsaE inh inactive.
COc1ccc(-n2ncc3c(N4CCc5ccccc54)ncnc32)cc1 was read as PK Bst >57 and TsaE inh inactive.
For Clc1cccc(-c2nc(-c3ccccn3)no2)c1 the results were PK Bst 3.3* and TsaE inh inactive.
O=C(CCc1ccc(S(=O)(=O)N2CCOCC2)cc1)Nc1cc(Cl)ccc1N1CCOCC1 was read as PK Bst >57 and TsaE inh inactive.
Nc1cc(OC(=O)c2ccccc2Br)nn1S(=O)(=O)c1ccccc1 was read as TsaE inh inactive.
Screening CC(=O)Nc1ccc2c(c1)C(=Nc1ccc(C(=O)O)cc1)c1ccccc1-2 returned TsaE inh inactive.
For O=C(Nc1nc2c(s1)CCCC2)c1cc2n(n1)C(C(F)(F)F)CC(C1CC1)N2 (centres undefined) the results were PK Bst >57 and TsaE inh inactive.
`O=C(c1cn(-c2ccccc2)nc1-c1ccc(F)cc1)N1CCOCC1` gave TsaE inh inactive.
`O=C(OCCN(CCOC(=O)c1ccncc1)S(=O)(=O)c1cccs1)c1ccncc1` gave PK Bst >57 and TsaE inh inactive.
N=c1ccn2c(n1)O[C@H]1[C@@H](OP(=O)(O)O)[C@H](CO)O[C@H]12 was read as TsaE inh inactive.
`Cn1c2c(c(=O)n(C)c1=O)CN(CCN1CCNCC1)CN2` gave TsaE inh inactive.
`C[C@]1(O)CC[C@H]2[C@H]3CC=C4N5CCN=C5CC[C@@]4(C)[C@H]3CC[C@@]21C` gave TsaE inh inactive.
O=C(Cc1ccc(-c2ccccc2)cc1)N1CCOCC1 was read as PK Bst >57 and TsaE inh inactive.
CCOc1cccc(C2C(C(=O)c3ccc(C)o3)=C(O)C(=O)N2c2nccs2)c1 (centres undefined) was read as PK Bst >57 and TsaE inh inactive.
COc1cc(Cl)c(S(=O)(=O)NCc2cccnc2)cc1Cl was read as TsaE inh inactive.
`Nn1c(-c2cccs2)nc2sc3c(c2c1=O)CCCC3` gave PK Bst inconclusive and TsaE inh inactive.
CC1CCCN(c2ccc(C(=O)NCCc3ccccc3)cn2)C1 (centres undefined) was read as TsaE inh inactive.
For O=C(Nc1ccc2c(c1)OCO2)c1cnn2c(C(F)(F)F)cc(-c3ccco3)nc12 the results were TsaE inh inactive.
`Cc1c(C2OC(=O)C3(CCCCC3)C(=O)C2(C)C)c(=O)n(-c2ccccc2)n1C` (centres undefined) gave PK Bst >57 and TsaE inh inactive.
CCN(CC)C(=O)CSc1nc2cc3c(cc2c(=O)n1Cc1ccc2c(c1)OCO2)OCO3 was read as PK Bst >57 and TsaE inh inactive.
For C=CCOC(=O)Nc1ccc(Cl)cc1NC(=O)OCC=C the results were PK Bst >57 and TsaE inh inactive.
For CC(=O)Nc1cccc(NC(=O)C2CCCN2C(=O)Nc2ccccc2C)c1 (centres undefined) the results were PK Bst >57 and TsaE inh inactive.
COc1ccc(C(=O)Nc2cc(-c3nn4c(C)nnc4s3)ccc2C)cc1 was read as TsaE inh inactive.
Screening Cc1cc2cc(C(c3nnnn3CC3CCCO3)N3CCCc4ccccc43)c(=O)[nH]c2cc1C (centres undefined) returned PK Bst >57 and TsaE inh inactive.
For Clc1ccc(Cn2ncc3c(NCCN4CCOCC4)ncnc32)cc1 the results were PK Bst >57 and TsaE inh inactive.
Screening CC(CO)(CO)N=Cc1cc(I)cc(I)c1O returned TsaE inh inactive.
Screening O=C(CN1CCOc2ccccc21)N1CCCC1 returned TsaE inh inactive.
For CC(=O)N1CCCc2cc(S(=O)(=O)CCC(=O)N3CCN(c4cccc(C)c4)C(C)C3)ccc21 (centres undefined) the results were TsaE inh inactive.
Screening Cc1[nH]ccc2c1[nH]c1cc(=O)ccc12 returned TsaE inh inactive.
Cc1ccc(SCC(=O)NCC(C)C)cc1 was read as TsaE inh inactive.
Cc1ccc(Nc2nc(N)nc(CSc3nccn3C)n2)cc1 was read as TsaE inh inactive.
`CCCc1nnc(NC(=O)C2CCCO2)s1` (centres undefined) gave PK Bst >57 and TsaE inh inactive.
COc1ccc(OCc2nnc(SC(C)C(=O)Nc3nccs3)n2-c2ccccc2)cc1 (centres undefined) was read as PK Bst >57 and TsaE inh inactive.
Screening CC(=O)Nc1sc2c(c1C#N)CCCCC2 returned PK Bst >57 and TsaE inh inactive.
For Clc1c(CSc2nc3ccccc3o2)nc2sccn12 the results were PK Bst inactive and TsaE inh inactive.
O=C(COC(=O)COc1ccccc1)Nc1ccccc1OC(F)F was read as PK Bst >57 and TsaE inh inactive.
Screening Cc1cc(C)nc(SC2CCCCC2O)n1 (centres undefined) returned PK Bst >57 and TsaE inh inactive.
For CCOC(=O)c1[nH]c2cc3c(cc2c1NC(=O)CN1CCC(C)CC1)OCO3 the results were PK Bst >26.
COc1ccc(CCNC(=O)Cn2cnc3c(cnn3-c3ccccc3Cl)c2=O)cc1OC was read as PK Bst >57 and TsaE inh inactive.
CC(=O)Oc1c(C)cc(O)c2ccccc12 was read as TsaE inh inactive.
COC(=O)C(NC(=O)c1ccco1)(Nc1ccc(Br)cn1)C(F)(F)F (centres undefined) was read as PK Bst >26.
`Cc1ccc(Cn2nnc3c(=O)[nH]c(C4CCN(C(=O)Cc5cccs5)CC4)nc32)cc1` gave PK Bst >57 and TsaE inh inactive.
Cc1ccc(S(=O)(=O)Cn2nnnc2C(C)N2CCN(C(=O)c3ccco3)CC2)cc1 (centres undefined) was read as PK Bst >57 and TsaE inh inactive.
Screening CCC(=O)Nc1cccc(-c2nc3ccccc3o2)c1 returned TsaE inh inactive.
Screening COc1cc(C2/C(=C(/O)c3ccc(F)cc3)C(=O)C(=O)N2CCCC(=O)O)ccc1O (centres undefined) returned PK Bst >57 and TsaE inh inactive.
Cc1ccccc1CSc1nc2n(n1)C(c1cccs1)C1=C(CCCC1=O)N2 (centres undefined) was read as PK Bst >57 and TsaE inh inactive.
Screening Cc1cc(C)nc(SCc2csc(N)n2)n1 returned TsaE inh inactive.
For COC(=O)CSCC(=O)Nc1cc2c(cc1C(C)=O)OCO2 the results were PK Bst >26.
CC(C)N(Cc1nc(-c2ccccc2)no1)C(=O)c1ccc(Cl)cc1 was read as TsaE inh inactive.
For O=C(O)c1ccccc1C(=O)N1CCN(c2ccccc2)CC1 the results were TsaE inh inactive.
For COc1cccc2c1nc(C)c1cc(C)oc12 the results were TsaE inh inactive.
`CCCCCC(=O)Nc1ccc(N2CCN(C(=O)c3ccccc3)CC2)cc1` gave PK Bst >57 and TsaE inh inactive.
`CCOC(=O)N1CCC(NC(=O)CS(=O)Cc2nc(-c3ccc(OC)c(OC)c3)oc2C)CC1` (centres undefined) gave PK Bst >57 and TsaE inh inactive.
`O=C(NCc1ccco1)c1cnn2c(C(F)F)cc(-c3ccccc3)nc12` gave PK Bst >57 and TsaE inh inactive.
`c1ccc2oc(SCc3nc4ccccc4s3)nc2c1` gave TsaE inh inactive.
O=C(Cn1cnc2c(nnn2-c2cccc(Cl)c2)c1=O)N1CCOCC1 was read as TsaE inh inactive.
Screening Cc1nc2ccc(S(=O)(=O)N(C)CC(=O)N3CCc4ccccc43)cc2s1 returned PK Bst >57 and TsaE inh inactive.
`CCOC(=O)C1(c2ccccc2)NC(c2ccc(N(C)C)cc2)C2C(=O)N(C)C(=O)C21` (centres undefined) gave PK Bst >57 and TsaE inh inactive.
Screening COC(=O)C(C(=O)Nc1cc(C)on1)C1CCCCCC1 (centres undefined) returned PK Bst >57 and TsaE inh inactive.
`O=[N+]([O-])c1cccc(Cl)c1Cl` gave TsaE inh inactive.
O=C(CSc1nnc(-c2ccco2)o1)NC(=O)Cc1ccccc1 was read as PK Bst >57 and TsaE inh inactive.
CCc1ccc(NC(=O)N(CCCN2CCOCC2)C(C)c2cc3cccc(OC)c3o2)cc1 (centres undefined) was read as PK Bst >57 and TsaE inh inactive.
Cc1ccc(C(=O)NC2CCCCCC2)o1 was read as PK Bst >57 and TsaE inh inactive.
Screening CS(=O)(=O)N(CC(=O)O)c1ccc(Oc2ccccc2)cc1 returned PK Bst >57 and TsaE inh inactive.
CCN(CC(=O)Nc1ccc2c(c1)CCC2)Cc1nc2ccccc2c(=O)[nH]1 was read as PK Bst >57 and TsaE inh inactive.
Cc1nc(NCC2CCCO2)nc2c1C(=O)CC(C)(C)C2 (centres undefined) was read as PK Bst >57 and TsaE inh inactive.
For COc1ccccc1-c1nc(NC(C)=O)n[nH]1 the results were PK Bst >57 and TsaE inh inactive.
CC1CN(c2nc3c(c(=O)n(C)c(=O)n3C)n2Cc2c(F)cccc2Cl)CC(C)O1 (centres undefined) was read as PK Bst >57 and TsaE inh inactive.
Cc1ccc(-c2[nH]nc3c2C(c2ccccc2OC(=O)N2CCOCC2)C(C#N)=C(N)O3)cc1 (centres undefined) was read as PK Bst >57 and TsaE inh inactive.
Screening CC(=O)c1ccc(NC(=O)CSc2nnc(Cc3cccn3C)n2-c2ccc(F)cc2)cc1 returned TsaE inh inactive.
For CCOc1cc(N2C(=O)CC3CS(=O)(=O)CC32)c(OCC)cc1NC(=O)c1ccccc1 (centres undefined) the results were PK Bst >57 and TsaE inh inactive.
For CCOC(=O)C1CCCN(c2nc3ccccc3nc2C(C#N)C(=O)OC(C)C)C1 (centres undefined) the results were PK Bst >11.
For CCOC(=O)C(C)(C)Sc1ncnc2nc[nH]c12 the results were PK Bst >57 and TsaE inh inactive.
Screening C(=N\n1cnnc1)/c1ccccc1OCCOc1ccccc1 returned TsaE inh inactive.
`CC(C)(Sc1cc(C(C)(C)C)c(O)c(C(C)(C)C)c1)Sc1cc(C(C)(C)C)c(O)c(C(C)(C)C)c1` gave TsaE inh inactive.
CN1CCN(c2ccc(NC(=O)c3cccc(OCc4ccccc4)c3)cc2)CC1 was read as TsaE inh inactive.
For O=C(CSc1ccccc1C(=O)O)NCc1ccco1 the results were PK Bst >57 and TsaE inh inactive.
For c1ccc2c(c1)CCN(c1nc3cc4c(cc3s1)OCO4)C2 the results were PK Bst 2.8* and TsaE inh inactive.
`CC(C)CCNC(=O)CN(Cc1ccc2c(c1)OCO2)C(=O)Cn1nnc(-c2cccs2)n1` gave PK Bst >57 and TsaE inh inactive.
For Cc1cc(C)n2nc(C(=O)Oc3ccc4c(c3)OCO4)nc2n1 the results were PK Bst >57 and TsaE inh inactive.
Screening CCN(Cc1ccncc1)C(=O)c1cccs1 returned TsaE inh inactive.
For C/C(Cl)=C\Cn1c(N2CCCC2)nc2c1c(=O)[nH]c(=O)n2C the results were PK Bst >57 and TsaE inh inactive.
Screening CNC(=O)c1ccccc1NC(=O)c1c(O)c2c([nH]c1=O)CCCC2 returned PK Bst >57 and TsaE inh inactive.
`CCOc1ccccc1-n1c(SCC(N)=O)nnc1-c1ccco1` gave PK Bst >57 and TsaE inh inactive.

Grouped by structure: the entries above with an aryl methoxy group
COc1ccc(-n2ncc3c(N4CCc5ccccc54)ncnc32)cc1 was read as PK Bst >57 and TsaE inh inactive.
COc1cc(Cl)c(S(=O)(=O)NCc2cccnc2)cc1Cl was read as TsaE inh inactive.
COc1ccc(C(=O)Nc2cc(-c3nn4c(C)nnc4s3)ccc2C)cc1 was read as TsaE inh inactive.
COc1ccc(OCc2nnc(SC(C)C(=O)Nc3nccs3)n2-c2ccccc2)cc1 (centres undefined) was read as PK Bst >57 and TsaE inh inactive.
COc1ccc(CCNC(=O)Cn2cnc3c(cnn3-c3ccccc3Cl)c2=O)cc1OC was read as PK Bst >57 and TsaE inh inactive.
Screening COc1cc(C2/C(=C(/O)c3ccc(F)cc3)C(=O)C(=O)N2CCCC(=O)O)ccc1O (centres undefined) returned PK Bst >57 and TsaE inh inactive.
For COc1cccc2c1nc(C)c1cc(C)oc12 the results were TsaE inh inactive.
`CCOC(=O)N1CCC(NC(=O)CS(=O)Cc2nc(-c3ccc(OC)c(OC)c3)oc2C)CC1` (centres undefined) gave PK Bst >57 and TsaE inh inactive.
CCc1ccc(NC(=O)N(CCCN2CCOCC2)C(C)c2cc3cccc(OC)c3o2)cc1 (centres undefined) was read as PK Bst >57 and TsaE inh inactive.
For COc1ccccc1-c1nc(NC(C)=O)n[nH]1 the results were PK Bst >57 and TsaE inh inactive.

These rows are one share of the data (hit frequency here may not be typical).
